Screens as filed in PubChem BioAssay.
Beta2AR agonist = agonists of human beta-2 adrenergic receptor inducing internalization. 340,000 compounds, 0.43% hits. Am2.2-beta2AR cells, FAP receptor internalization, flow cytometry; reference of the scale not given here. response, % (concentration not given with the values). P07550;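 active = response above a set limit, near 3 SD of response in nonfluorescent compounds, cut at about 42% in these data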;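 note: stock transfer was 100 nL into about 11 µL; a reference agonist was the positive control; negative values mostly stem from fluorescent compounds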
Target sequence (P07550 whole entry, looked up): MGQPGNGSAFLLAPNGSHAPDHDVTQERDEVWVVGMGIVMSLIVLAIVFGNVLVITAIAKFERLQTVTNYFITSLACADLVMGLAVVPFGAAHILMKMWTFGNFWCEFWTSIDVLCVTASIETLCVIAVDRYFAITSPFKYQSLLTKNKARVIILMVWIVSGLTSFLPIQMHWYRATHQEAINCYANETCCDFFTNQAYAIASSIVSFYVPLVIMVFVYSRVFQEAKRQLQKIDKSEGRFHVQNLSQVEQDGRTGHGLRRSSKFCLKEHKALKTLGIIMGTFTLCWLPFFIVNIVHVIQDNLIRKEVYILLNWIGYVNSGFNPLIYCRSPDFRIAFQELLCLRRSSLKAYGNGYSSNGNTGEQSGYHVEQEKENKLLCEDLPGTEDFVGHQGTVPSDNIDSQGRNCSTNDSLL
E coli growth = E. coli growth inhibition; Escherichia coli growth, OD600, 23 h; active compounds read low; OD600 absorbance (no concentration beside the values); 330,000 compounds, 0.21% hits; AID 1053175;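 active = OD600 absorbance below the run mean of sample wells minus 3.6 SD, in any replicate, cut at about 0.56 in these data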;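 note: stock transfer was 300 nL into about 60 µL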
rRNA inh HTS = inhibits bacterial ribosomal RNA function over humanized ribosomes; E. coli WT GFP vs humanized-ribosome RFP mutants, fluorescence, 24 h; active compounds read low; DMSO median 0, no signal -100; GFP signal change (wild-type ribosome), % (concentration not given with the values); 350,000 compounds, 1.6% hits;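 active = significant combined selectivity score with lowered wild-type GFP, culture density cut under 30%, mutant RFP and density less affected; inactive = any of these conditions unmet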; note: one replicate is shown; some compounds called inactive have numbers as strong as hits
HNF4A DNA FP = change in binding of human HNF4 alpha to DNA; P41235; HNF4a-FITC DNA binding, fluorescence polarization, 1 h; activity change, % at 10 µM; 360,000 compounds, 0.3% hits; AID 1224865; in the data active = activity change above about 30%, passing the limit was not always enough;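 note: controls were the assay level and a saturating level of protein; the project sought stronger binding though the title names inhibitors; some compounds called inactive have numbers as strong as hits; positive values seem to mean higher polarization but the record does not say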
FGF22 binding = shifts melting point of recombinant human FGF22; Q9HCT0; recombinant FGF22 thermal shift, SYPRO orange fluorescence; percent of sucrose octasulfate shift, DMSO zero; calls only at 9.99 µM; 340,000 compounds, 1.5% hits; AID 651658;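 active = melting point raised past a set limit in the mean and every replicate; inconclusive = no clear call; three in four hits are not shown here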
Target sequence (Q9HCT0 whole entry, looked up): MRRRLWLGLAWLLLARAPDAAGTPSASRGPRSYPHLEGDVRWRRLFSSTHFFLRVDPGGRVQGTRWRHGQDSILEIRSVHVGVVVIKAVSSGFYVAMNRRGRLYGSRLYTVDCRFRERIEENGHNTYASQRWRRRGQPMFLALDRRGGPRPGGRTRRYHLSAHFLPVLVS
ALR inh = inhibitors of human sulfhydryl oxidase ALR. 290,000 compounds, 3.8% hits. P55789. purified ALR, DTT oxidation, H2O2 HRP-luminol luminescence. AID 485317. inhibition, % (concentration not given with the values);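 active = mean and each replicate at 75% or more; inconclusive = only one of the two met; inactive = neither met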;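 note: stock transfer was 7.5 nL into about 7.5 µL; 0% = neutral wells and 100% = wells with inactivated enzyme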
UCH37 inh = inhibitors of human deubiquitinating enzyme UCH37. Q9Y5K5. purified proteasome/UCH37, Ub-AMC cleavage fluorescence. inhibition, % (no concentration beside the values). 330,000 compounds, 0.33% hits. AID 588478;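 active = mean of two replicates above 20%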;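 note: 0% = compound-free wells with enzyme and 100% = wells lacking proteasome; stock transfer was 100 nL into about 20 µL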
Target sequence (Q9Y5K5 whole entry, looked up): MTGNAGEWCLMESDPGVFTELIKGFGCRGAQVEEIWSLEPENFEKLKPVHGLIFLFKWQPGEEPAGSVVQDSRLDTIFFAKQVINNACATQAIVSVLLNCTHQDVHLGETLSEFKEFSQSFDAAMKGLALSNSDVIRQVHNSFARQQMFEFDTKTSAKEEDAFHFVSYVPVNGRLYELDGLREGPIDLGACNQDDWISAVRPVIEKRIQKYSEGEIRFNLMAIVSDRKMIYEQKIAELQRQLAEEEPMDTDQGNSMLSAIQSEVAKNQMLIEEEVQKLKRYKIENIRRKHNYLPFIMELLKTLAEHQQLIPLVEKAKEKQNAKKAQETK
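Assay system: Proteasome-bound UCH37. Buffer or medium: pH 7.4 Tris-HCl (50 mM) with ovalbumin, ATP-MgCl2, DTT. Incubation: 30 min preincubation with enzyme, 25 min cleavage at room temperature. Measured by: fluorescence, ex 355 nm, em 460 nm. Read-out basis: percent inhibition. Control set: wells without proteasome as full block, compound-free enzyme plus substrate as uninhibited.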
rRNA inh HTS OD600 = recorded beside rRNA inh HTS, whose call it bears; OD600 change, %; measured here: OD600 growth;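 optical density of the mix in the first replicate; 0 = DMSO median and -100 = no signal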
rRNA inh HTS RFP = also measured in rRNA inh HTS; calls as there; RFP signal change, %; measured here: RFP humanized mutant strains;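 first replicate; 0 = DMSO median and -100 = no signal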
Active calls of the source: *; i = inactive; ? = inconclusive; / = no result given. A portion of the library; count on the stated rates, not on these rows.

SMILES	Beta2AR agonist	E coli growth	rRNA inh HTS	rRNA inh HTS OD600	rRNA inh HTS RFP	HNF4A DNA FP	FGF22 binding	ALR inh	UCH37 inh
O=C(CSc1nncn1-c1cccnc1)Nc1cccc(C(F)(F)F)c1	-13	0.68	-6	-1	-0.7	-1.6	i	-1	2.5
O=C(/C=C/c1ccccc1[N+](=O)[O-])NNC(=O)c1ccncc1	-5	0.66	8	7	-2.4	0.2	i	/	7.2
CCCCCCn1c(=O)n2n(c1=O)C[C@]1(OC(=O)NCc3ccccc3F)CN(S(=O)(=O)c3ccc(C)cc3)C[C@]1(O)C2	/	/	-2	-12	0.1	-2.0	i	/	/
COc1ccc(CNC(=O)CN2C(=O)CCSc3ccc(S(=O)(=O)N4CCCC4)cc32)cc1	1	0.7	4	1	0.8	3.1	i	0	0.9
COc1ccc(CN(C(=O)c2cccs2)c2ccccc2)cc1	1	0.75	-36	38	-0.7	-1.3	i	/	-2.1
O=C1CCCN1CCCNS(=O)(=O)c1ccc(Cl)c(C(=O)N2CCOCC2)c1	1	0.67	/	/	/	-2.7	/	0	3.9
CC(=O)Nc1nc(-c2ccc(-c3ccccc3)cc2)cs1	/	/	4	6	-4.3	2.8	i	/	/
COC(=O)CN1C(=O)C2(C(C#N)=C(N)Oc3n[nH]c(-c4cccs4)c32)c2ccccc21 (stereo not drawn)	3	0.73	/	/	/	1.0	/	0	1.3
Cc1c(C(=O)N2CCOCC2)c(S(=O)(=O)Nc2cccc(Br)c2)c(C)n1C	0	/	14	4	3.3	3.1	i	6	/
Cc1nn(-c2ccccc2)c2[nH]c(=O)cc(C(F)F)c12	3	0.68	-4	-11	0.1	-7.4	i	/	2.4
COc1ccc([C@@H](OC)[C@@]2(Cc3ccc(O)cc3)N=C(N)N(C)C2=O)cc1	9	/	-2	-3	10	2.3	i	-3	1.7
CCC(C)(C)NC(=O)C(c1cccc(OC)c1OC)N(CCC(C)C)C(=O)CCC(=O)Nc1cc(C)on1 (stereo not drawn)	-5	0.7	7	-1	6.6	2.0	i	-19	1.0
Cc1csc(SCC(=O)Nc2cc(C(N)=O)cc(C(N)=O)c2)n1	2	0.66	1	13	-2.6	0.3	i	31	-1.0
Clc1ncccc1OCc1ccccc1	-3	0.68	10	8	0.3	2.2	i	4	2.8
CCn1c(SCC(=O)Nc2ccccc2)nc2ccccc2c1=O	2	0.67	-15	-3	2.4	4.4	i	-5	-1.3
COCCn1cc(C(=O)N2CCN(C)CC2)c2c3ccccc3n(C)c2c1=O	-2	0.67	/	/	/	-6.3	/	-2	-124
CCCCNC(=O)CCC(=O)Nc1ccc2nc(N3CCN(C)CC3)cc(C)c2c1	-2	0.68	6	1	-1.9	-1.0	i	-2	-60
C=CCOc1nc2c(c(=O)n(Cc3ccc(Cl)cc3)c(=O)n2C)n1C	0	0.8	/	/	/	-1.7	/	-1	0.2
COCCn1c(CNc2ccc(F)cc2)nnc1SCC(=O)Nc1ccc(OC)cc1OC	8	0.65	/	/	/	-3.5	/	-9	3.9
CC(C)C[C@@H](CO)N1CCN(Cc2cccc(C#N)c2)CCC1=O	-2	/	10	9	-0.9	-1.4	i	1	2.3
NC(=O)CC(NC(=O)c1ccccc1)c1ccc(NCCc2ccc(Cl)cc2)c([N+](=O)[O-])c1 (stereo not drawn)	-2	0.7	-5	-2	15	19	i	1	1.9
COc1ccc(C(=O)NC(=S)Nc2nc(C)c(C(=O)N(C)C)s2)cc1	4	0.69	/	/	/	-2.5	/	1	6.0
CCN1C(=O)/C(=C/c2c(C)nn(C)c2C)SC1=S	-14	0.69	18	0	18	10	i	-12	9.9
Cc1ccc(S(=O)(=O)c2cnc3cc(C)nn3c2N)cc1	5	0.67	6	10	-9.1	-1.9	i	-3	-0.1
CCN(CC1CCCO1)C(=O)C1CCN(C2CCN(Cc3ccccc3C)CC2)CC1 (stereo not drawn)	3	0.74	14	13	4.1	0.1	i	1	0.2
CCn1c(SCC(=O)Nc2ccccc2OC)nnc1-c1cnccn1	6	0.72	/	/	/	1.9	/	-1	2.1
COc1ccc(S(=O)(=O)N2CCC(C(=O)Nc3nnc(CCN4CCCCC4)s3)CC2)cc1	2	0.69	/	/	/	-5.2	/	/	5.0
Cc1ccccc1S(=O)(=O)NC(=O)C1(C)CCN1C(=O)C/C=C/c1ccccc1 (stereo not drawn)	/	/	7	19	3.7	1.3	i	/	/
CCOc1ccc(/C=N/OC(C)C(=O)NCc2ccc3c(c2)OCO3)cc1 (stereo not drawn)	16	/	-28	-43	-11	0.8	i	-28	/
COCCCNC(=O)C(=O)Nc1cc2c3c(c1)CCN3C(=O)CC2	-6	0.73	1	2	-2.7	-1.4	i	2	5.5
CCOC(=O)N1CCc2c(sc3c2c(=O)n(Cc2ccccc2)c(=O)n3CC(=O)NCC2CCCO2)C1 (stereo not drawn)	2	0.69	4	7	2.0	-0.3	i	-1	-1.2
C[C@@H]1CCCCCCCCC(=O)OCCN(C(=O)OC(C)(C)C)[C@H](C)CCCCCCCCC(=O)OCCN(C(=O)OC(C)(C)C)[C@H](C)CCCCCCCCC(=O)OCCN(C(=O)OC(C)(C)C)[C@H](C)CCCCCCCCC(=O)OCCN1C(=O)OC(C)(C)C	-1	/	7	10	-4.8	5.8	i	-2	3.6
O=C(CSc1nnc2n(C3CCCC3)c(=O)c3ccccc3n12)N1CCCCCC1	-28	0.71	/	/	/	-1.7	/	-16	1.9
CCN(CC)c1ccc(C=Nc2ccc(OC)c(S(=O)(=O)N3CCOCC3)c2)c(O)c1	7	0.71	-1	-4	-0.7	2.1	i	11	5.8
CCN1CCCC1CNC(=O)COc1cc(=O)n(C)c2ccccc12 (stereo not drawn)	-4	0.71	/	/	/	0.7	/	-4	-1.1
CCN1CCN(c2ncnc3c2nnn3Cc2ccccc2)CC1	-11	0.7	/	/	/	5.4	/	0	0.7
CCOc1ccc(-c2cc(C(=O)NCCCn3ccnc3)c3ccccc3n2)cc1	-10	0.65	-26	-25	1.5	-0.2	i	-10	-151
Cc1ccc(C)c(C(=O)Cn2ncc(Cl)c(Cl)c2=O)c1	41	0.73	/	/	/	-0.5	/	63	2.5
CN(CC(=O)Nc1c(Cl)cccc1Cl)C(=O)c1ccc2ccccc2n1	6	0.72	7	-7	0.6	0.2	i	/	-0.7
CCc1nnc(NC(=O)C2CCN(c3ncnc4sc(C)c(C)c34)CC2)s1	5	0.71	/	/	/	0.0	i	-1	2.3
CC(C)C(NC(=O)C12CC3CC(CC(C3)C1)C2)C(=O)N/N=C/C1=C(N2CCOCC2)C(=C\c2ccc([N+](=O)[O-])cc2)/CC1 (stereo not drawn)	-3	/	8	8	2.6	0.9	i	-3	/
Cc1cccc(NC(=O)c2cc(-c3cc(C)c(C)cc3O)n[nH]2)c1	-1	0.7	6	4	0.7	-3.5	i	/	4.8
COc1cccc(N2CCN(C(=O)c3ccc4nc(N5CCC(C)CC5)sc4c3)CC2)c1	/	0.68	-16	-14	15	/	/	-9	3.4
Cc1cccc(C(=O)OCc2cc3ccccc3[nH]c2=O)c1	-5	0.73	/	/	/	-1.6	/	2	-4.1
Cc1cc(C(=O)OCC(=O)Nc2c(Cl)cccc2C(F)(F)F)c(C)o1	-3	0.65	12	7	-1.0	-0.2	i	1	0.1
C/C(CC(=O)Nc1ccc(Cl)cc1Cl)=N\NC(=O)C(=O)N1CCCC1	-3	/	4	4	1.5	0.7	i	/	/
CCOc1ccc(/C=C(\C(=O)O)c2ccc(S(=O)(=O)N3CCOCC3)s2)cc1OC	-20	0.68	/	/	/	-4.6	/	-4	4.5
CCOc1ccc(S(=O)(=O)NCCC(=O)N(CC)CC(=O)Nc2c(F)cccc2F)cc1	3	0.68	-1	-1	-0.2	1.0	i	-1	-0.4
O=C(O)c1ccccc1Cc1ccc2c(c1)CCCC2	-4	0.7	-16	-31	-4.7	-1.3	/	/	0.5
COc1cc(OC)c(OC)cc1/C=C1\Oc2cc(OCC(=O)N3Cc4ccccc4C[C@H]3C(=O)O)ccc2C1=O	-4	0.66	/	/	/	61*	/	-10	27*
Next section:
SMILES	Beta2AR agonist	E coli growth	rRNA inh HTS	rRNA inh HTS OD600	rRNA inh HTS RFP	HNF4A DNA FP	FGF22 binding	ALR inh	UCH37 inh
CCN(Cc1ccccc1)C1CCN(Cc2ccccc2)CC1	-1	0.71	/	/	/	-0.4	/	-6	3.1
CC(C)C(=O)N1CCC1(C)C(=O)NCc1ccc(F)cc1Cl (stereo not drawn)	/	/	11	7	1.8	3.4	i	/	/
CN(c1ccccc1)S(=O)(=O)c1cccc(NC(=O)CN2CCc3ccccc3C2)c1	-3	0.71	7	-6	20	2.2	i	-2	2.1
CCOc1ccccc1OCCOc1ccccc1CC	7	0.73	/	/	/	4.0	/	1	2.1
COc1ccc(-c2cccc(C3CC=CC4C3C(=O)N(Cc3ccccc3)C4c3ccc(C(F)(F)F)cc3)c2)cc1 (stereo not drawn)	-1	0.71	17	14	10	2.6	i	/	0.1
CC1(C)Cc2c(c(N3CCCC3)[nH]c(=S)c2C#N)CO1	/	0.72	/	/	/	/	/	-37	0.8
Fc1ccc(NC(=S)Nc2ccccc2Cl)cc1	-5	0.68	/	/	/	0.2	i	1	-1.2
CCC(=O)Oc1ccc(-c2cnc3ccccc3n2)cc1	-10	0.65	-4	-7	-3.6	-0.2	/	/	-1.3
Cc1cc(C(=O)CSc2cccc[n+]2[O-])c(C)n1-c1ccc(OC(F)F)cc1	-6	0.7	-21	-26	10	3.7	i	3	6.9
COc1cccc(CNn2cn[nH]c2=S)c1OCc1ccccc1	1	0.7	-1	0	-0.7	-3.1	i	?	3.9
Cc1cc(C)c2[nH]c(=O)c(C(c3nnnn3Cc3ccc4c(c3)OCO4)N3CCCCC3)cc2c1 (stereo not drawn)	-5	0.7	/	/	/	1.7	/	-6	1.5
N#C/C(C(=O)Oc1ccccc1)=C1\C=CC=CN1	-11	/	/	/	/	-2.9	/	6	4.6
CCOc1ccc(N(C)S(=O)(=O)c2ccc(C)c(C(=O)OCC(=O)c3c[nH]c4ccccc34)c2)cc1	3	0.72	-2	2	-1.7	-0.6	i	-17	2.7
CSCCCNC(=S)Nc1ccc(N2CCOCC2)cc1	-2	0.7	-6	-7	0.9	0.4	i	95*	1.5
Cc1cc(N2C(=O)C(=O)/C(=C(/O)c3ccccc3)C2c2cccc(Br)c2)no1 (stereo not drawn)	6	0.64	4	5	5.3	1.0	i	62	22*
Cc1ccc(S(=O)(=O)NCC(c2ccc3c(c2)OCO3)N2CCN(c3ccccc3)CC2)cc1 (stereo not drawn)	-8	0.72	13	12	1.1	-0.8	i	7	0.2
COc1cc2c(-c3ccc4cc[nH]c4c3)c(-c3ccsc3)oc(=O)c2cc1OC	11	0.73	-2	2	-2.4	0.7	i	-2	1.7
Cc1cccc(C)c1NS(=O)(=O)c1cc2c3c(c1)CC(=O)N3CCC2	/	0.69	-5	-3	4.0	-0.1	i	13	3.2

Grouped by structure: those above with a CF3 group (3)
SMILES	Beta2AR agonist	E coli growth	rRNA inh HTS	rRNA inh HTS OD600	rRNA inh HTS RFP	HNF4A DNA FP	FGF22 binding	ALR inh	UCH37 inh
O=C(CSc1nncn1-c1cccnc1)Nc1cccc(C(F)(F)F)c1	-13	0.68	-6	-1	-0.7	-1.6	i	-1	2.5
Cc1cc(C(=O)OCC(=O)Nc2c(Cl)cccc2C(F)(F)F)c(C)o1	-3	0.65	12	7	-1.0	-0.2	i	1	0.1
COc1ccc(-c2cccc(C3CC=CC4C3C(=O)N(Cc3ccccc3)C4c3ccc(C(F)(F)F)cc3)c2)cc1 (stereo not drawn)	-1	0.71	17	14	10	2.6	i	/	0.1
